Screens (PubChem)
StopGo RLuc: lowers the Renilla signal of an FMDV 2A StopGo reporter | HEK cells with a luciferase reporter of 2A StopGo recoding | Potency, µM (highest dose often 57.5 µM), inactives show top-dose signal change, negative = less light | 0.32% of 120,000 active; active means well fitted falling curve with a large enough effect; inconclusive means small, poorly fitted or top-dose-only effect; inactive means no such curve, though single readings can be large or run the other way; also: nearly all actives have a fitted effect of over 55% in size; overnight with compound
StopGo FLuc: FMDV 2A StopGo reporter, firefly signal. Potency, µM (doses to about 57.5 µM), for the others: at the top dose signal change, negative = less light. HEK cells with a luciferase reporter of 2A StopGo recoding. 0.23% of 120,000 active; active = well fitted falling curve with a large enough effect; inconclusive = small, poorly fitted or top-dose-only effect; inactive = no such curve, though single readings can be large or run the other way; also: nearly all actives have a fitted effect of over 60% in size; overnight with compound
* = called active by the depositor; ? = inconclusive; [ ] = remark or other dose. % is scaled to controls: 0 for no effect and ±100 for the full control effect; potency is read from the fitted curve at half-maximal effect. Random draw from the library. About 0.55% of those tested had a hit in this group.

SMILES,StopGo RLuc,StopGo FLuc
CC(=O)N1CCCc2cc(S(=O)(=O)N3CCC(C(=O)Nc4c(C)cccc4C)CC3)ccc21,?,?
COc1ccc(CNC(=O)N2CCN(C(=O)c3ccccc3)CC2)cc1,-9%,-4%
Cc1cc(C)cc(NS(=O)(=O)c2ccc3c(c2)-c2oncc2CO3)c1,277%[activator],-8%
Cc1[nH]c2ccc(C(=O)NCCOc3ccccc3)cc2c1C,3%,164%[activator]
COc1ccc(NC(=O)CCn2c(=O)c3cccn3c3cccnc32)c(OC)c1,-4%,2%
Cc1c(C(=O)N(Cc2ccc(N(C)C)cc2)CC2CCCO2)oc2ccc(Cl)cc12 (stereo not drawn),-3%,8%
CCCCN(C(=O)c1ccc2c(=O)n3c(nc2c1)CCCCCC3)c1ccccc1,-2%,-13%
CC(C)Oc1ccc(CNC(=O)c2ccc3c(c2)nc2n3CCCCC2)cc1,-12%,73%[activator]
COc1cccc(N2CCN(CC(=O)NC(=O)NCC(F)(F)F)CC2)c1,-8%,-7%
OCCCBr,-4%[114 µM],-11%[22.9 µM]
CCOc1cc(OCC)c(C(=O)CCC(=O)O)cc1OCC,-7%,-17%[11.5 µM]
CCOc1ccccc1C1C(C(=O)N2CCCCC2)=C(C)Nc2nc3ccccc3n21 (stereo not drawn),-6%,-11%
COc1ccc(N2CC(C(=O)NCc3nnnn3-c3ccc(C)c(C)c3)CC2=O)cc1 (stereo not drawn),-10%,-20%
O=C(Nc1ccc2nn(-c3ccccc3)nc2c1)c1cc2ccccc2o1,-10%,-19%
O=C(Nc1cccc(C(=O)N2CCN(c3ccccc3)CC2)c1)C1=CSCCO1,30%[activator],1%
CCN(CC(=O)Nc1ccccc1OC)C(=O)Cc1nc(-c2ccccc2)oc1C,-7%,-13%
CCOC(=O)C1=C(C)N=C2SCC(=O)N2C1c1ccc(OC)cc1OC (stereo not drawn),-7%,-10%
CCN1CCN(c2ccc(NC(=O)c3cnc4ccccc4n3)cc2C)CC1,-7%,116%[activator]
COc1cc(CNc2ccc3[nH]c(=O)[nH]c3c2)cc(Br)c1OCc1ccccc1F,-10%,8%
O=CNNC(=S)Nc1cc(Cl)ccc1Cl,-13%,-15%
CCn1c(C)c(C)c2cc(C(=O)N3CCN(c4cccc(C)c4C)CC3)ccc21,44%[activator],-7%
COc1ccc(CCN(C)C(=O)C2CCCN(Cc3ccccc3)C2)cc1OC (stereo not drawn),-13%,-5%
Cc1ccc(C)c(NC(=O)Nc2nnc(N(CC(C)C)CC(C)C)s2)c1,-7%,3%
Cc1ccc(-n2ncc3c(N(C)C)ncnc32)cc1Cl,4%,182%[activator]
COc1ccccc1-c1coc2cc(O)ccc2c1=O,-5%,0%
CC(=O)Nc1ccc(NC(=O)C(C)C)cc1Cl,8%,2%
CC(C)c1ccccc1NC(=O)COC(=O)CCc1nc2ccccc2s1,0%,-3%
CN(C)CC(O)COc1ccc(NC(=O)Nc2ccc(F)cc2)cc1 (stereo not drawn),-16%,76%[activator]
Cc1ccc(S(=O)(=O)Nc2cc(Cl)c3oc4c(c3c2)C(=O)CC(C)(C)C4)cc1,-9%,1%
CCC(C)c1ccc(NC(=O)COC(=O)CCC2CCCC2)cc1 (stereo not drawn),0%,31%[activator]

(list continues)
SMILES,StopGo RLuc,StopGo FLuc
CCc1c(C)sc(NC(=O)c2cccc(OC)c2)c1C#N,6%,212%[activator]
CCCCN1C(=O)c2ccc(C(=O)OCc3csc(Nc4ccc(C)cc4)n3)cc2C1=O,-3%,86%[activator]
O=C(NCCc1ccccc1)c1cc(-c2ccccn2)nc2ccccc12,22%,39%[activator]
c1ccc(Oc2ncnc3sc(-c4ccccc4)cc23)cc1,16%,0%
Cc1ccc2nc(Cl)c3cc(C(=O)NCCCN(C)Cc4ccccc4)sc3c2c1,-5%,-19%
Cc1ccc2cc(C(=O)NCc3ccco3)[nH]c2c1,70%[activator],202%[activator]
CC(C)c1nc(C#N)c(N2CCN(c3ccccc3)CC2)o1,5%,19%
CC(=O)Nc1ccc2nc(SCCOc3ccc(C)cc3)sc2c1,-14%,-11%
O=c1oc2ccccc2cc1S(=O)(=O)N1CCCCCC1,-5%,4%
CCCC(C)NC(=O)c1cc(Br)c(Br)s1 (stereo not drawn),-4%[1.06 µM],0%
Cc1ccc(NC2(c3nnnn3-c3ccccc3C)CCCCC2)cc1,159%[activator],7%
Cc1nc2ccc(C(=O)OCC(=O)NC3CCCC3)cc2nc1C,-8%,134%[activator]
COCCn1c(C)cc(O)c(C(c2ccc(OC)cc2)N2CCN(c3ccccc3)CC2)c1=O (stereo not drawn),14%,-18%
Cc1ccc(C(=O)NC2=NC(c3ccc(C)cc3)CC(=O)N2)cc1 (stereo not drawn),-7%,11%
CC(c1nc(-c2cccs2)no1)N(C)Cc1ccc(F)cc1F (stereo not drawn),-3%,8%
CCCCCCn1c(NCc2ccccc2)nc2c1c(=O)[nH]c(=O)n2C,-4%,-2%
CC(NC(=O)c1ccc2c(c1)N(Cc1cccc(F)c1)C(=O)c1ccccc1S2)c1ccccc1 (stereo not drawn),9%,-19%
CN(C(=O)Nc1ccccc1C(F)(F)F)C1CCCCC1,9%,11%
CCCC(NC(=O)COc1cc2occ(-c3nncn3-c3ccccc3)c(=O)c2cc1CC)C(=O)O (stereo not drawn),-3%,0%
Cc1cccc(CNC(=O)c2ccc(Cn3c(=O)c4cccn4c4cccnc43)cc2)c1,-5%,-11%
Cc1ccc(C(=O)COC(=O)CN(Cc2ccccc2)Cc2ccccc2)cc1,8%,0%
CC(=O)OCC1(COC(C)=O)COCC(COC(C)=O)(COC(C)=O)C1=O,0%,12%
CCCOc1cccc(C(=O)N(Cc2ccc(C)o2)C2CCS(=O)(=O)C2)c1 (stereo not drawn),0%,2%
Cc1ccc(-c2nnc(Nc3ccc(OC(F)(F)Cl)cc3)c3ccccc23)cc1S(=O)(=O)NC(C)(C)CO,-8%,-14%
CCCn1c(SCc2ncc(-c3ccc(F)cc3)o2)n[nH]c1=O,-8%,36%
CCOCCCNC(=O)C(c1ccc(C)cc1)N(Cc1ccc2c(c1)OCO2)C(=O)c1ccc(NC(C)=O)cc1 (stereo not drawn),30%,-9%
COc1ccc(-c2cc3ccc(O)c(CN4CCCC4)c3oc2=O)cc1,-4%,18%
CSc1ncc(C(=O)N2CCN(c3cc(C)ccc3C)CC2)c(C)n1,-1%,3%
CCOC(=O)c1ccc(N2C(=O)c3n[nH]c(C)c3C2c2ccc(C(C)C)cc2)cc1 (stereo not drawn),-9%,-13%
COc1cccc(CNS(=O)(=O)c2cc3c(cc2C)n(C)c(=O)c(=O)n3C)c1,-6%,-13%

More results.
SMILES,StopGo RLuc,StopGo FLuc
CCc1ccc(Sc2cc(C(=O)NCCCN3CCCC(C)C3)c3ccccc3n2)cc1 (stereo not drawn),8%,-5%
Cc1cccc(-c2nc3nc(C)cc(NCc4ccccc4Cl)n3n2)c1,8%,72%[activator]
O=C(NC1CC1)c1cc(-c2ccc(O)cc2)nc2ccccc12,39%[activator],33%[activator]
CC(C)C(NS(=O)(=O)Cc1ccc(F)cc1)c1cccs1 (stereo not drawn),0%,-5%
CCc1ccc2oc(C(=O)Nc3nnc(C(C)C)s3)cc(=O)c2c1,-10%,2%
CCc1cc(C(=O)N2CCN(Cc3cc(OC)ccc3OC)CC2)sc1C,-9%,-11%
O=S(Cc1ccccc1)Cc1cccc(F)c1 (stereo not drawn),4%,2%
O=[N+]([O-])c1ccc(-c2cc(-c3ccccc3)nc(-c3ccccc3)c2)cc1,-13%,1%
COc1cccc(NC(=O)CCc2nc(-c3ccc(C(C)(C)C)cc3)no2)c1,-5%,-97%
Cc1cccc(NC(=O)c2c(N)sc3c2CCC(C)C3)c1 (stereo not drawn),-6%,42%[activator]
CCOc1ccc(C2CC(=O)NC(NC(=O)c3cccc(Cl)c3)=N2)cc1 (stereo not drawn),-9%,-12%
O=C(NCC(F)(F)F)c1cccc(NC(=O)c2cccc3cccnc23)c1,52%[activator],86%[activator]
COc1ccc(-c2cc(OC(=O)c3ccc(F)cc3)c3c(C)oc(C)c3c(=O)c2)cc1OC,-4%,-20%
COc1cccc(NC(=O)COC(=O)c2n[nH]c3ccccc23)c1,3%,185%[activator]
CN(C)C(=O)c1ccc2c(c1)NC(=O)CS2,-4%,10%
Cc1ccc(C2=NC(C)(C)N=C2SCC(=O)Nc2ccc(C)c(C)c2)cc1,-17%,-17%
COC(=O)N1CCCc2cc(S(=O)(=O)NCc3ccccc3)ccc21,-20%,11%
COc1cccc(C(=O)C(C)C(=O)c2cccc(OC)c2)c1,17%,0%
COc1ccc(C(=O)O)cc1CN1CCCCC1,4%,7%
CCCCOC(=O)c1ccc(NC(=O)c2cc(-c3ccccc3)on2)cc1,-7%,-6%
CCCOc1ccc(C(=O)Nc2ccc(NC(=O)c3ccccc3)c(C)c2)cc1,-11%,-5%
Nc1c(-c2nc(-c3cccs3)no2)nnn1-c1ccc(Cl)cc1,-8%,22%
C[C@@H](O)[C@H]1C(=O)N2C(C(=O)O)=C(S[C@@H]3CN[C@H](CNS(N)(=O)=O)C3)[C@H](C)[C@H]12,-3%,-3%[11.5 µM]
CC(=O)c1ccc(N2CCN(S(=O)(=O)c3c(C)nc4sc(C)cn4c3=O)CC2)cc1,5%,-28%
CCc1ccc(-c2nc(CS(=O)CC(=O)NCCc3ccc(C)cc3)c(C)o2)cc1 (stereo not drawn),4%,2%
CC1=C(C(=O)Nc2ccc(C(=O)NCCc3cccs3)cc2)SCCO1,-13%,62%[activator]
Cc1cc(C)cc(NC(=O)c2oc3ccc4c(c3c2C)C(=O)CC(C)(C)O4)c1,5%,108%[activator]
O=C(COCc1cc(-c2cccs2)on1)Nc1cc(C(F)(F)F)ccc1Cl,4%,-15%
Cc1nc2nc3ccn(CCCN4CCOCC4)c(=O)c3c(-c3ccccc3)n2n1,-3%,10%
Cc1cccc(OCC(=O)NC(Cc2c[nH]c3ccccc23)C(=O)O)c1C (stereo not drawn),-17%,-13%

An excerpt of these results, as labelled records:
> CCOC(=O)c1ccc(N2C(=O)c3n[nH]c(C)c3C2c2ccc(C(C)C)cc2)cc1 (stereo not drawn)
  StopGo RLuc: -9% | StopGo FLuc: -13%
> CC(NC(=O)c1ccc2c(c1)N(Cc1cccc(F)c1)C(=O)c1ccccc1S2)c1ccccc1 (stereo not drawn)
  StopGo RLuc: 9% | StopGo FLuc: -19%

Full records, looked up by structure. Order of values: StopGo RLuc, StopGo FLuc
CCCCOC(=O)c1ccc(NC(=O)c2cc(-c3ccccc3)on2)cc1 is entered as -7%, -6%
Cc1cccc(NC(=O)c2c(N)sc3c2CCC(C)C3)c1 (stereo not drawn) is entered as -6%, 42%[activator]
O=[N+]([O-])c1ccc(-c2cc(-c3ccccc3)nc(-c3ccccc3)c2)cc1 is entered as -13%, 1%
O=C(COCc1cc(-c2cccs2)on1)Nc1cc(C(F)(F)F)ccc1Cl is entered as 4%, -15%
CCc1cc(C(=O)N2CCN(Cc3cc(OC)ccc3OC)CC2)sc1C is entered as -9%, -11%

7 entries from above, with values under each structure.
Fields: StopGo RLuc | StopGo FLuc
COc1cccc(NC(=O)CCc2nc(-c3ccc(C(C)(C)C)cc3)no2)c1
 : -5% | -97%
Cc1cccc(NC(=O)c2c(N)sc3c2CCC(C)C3)c1 (stereo not drawn)
 : -6% | 42%[activator]
CCOc1ccc(C2CC(=O)NC(NC(=O)c3cccc(Cl)c3)=N2)cc1 (stereo not drawn)
 : -9% | -12%
O=C(NCC(F)(F)F)c1cccc(NC(=O)c2cccc3cccnc23)c1
 : 52%[activator] | 86%[activator]
COc1ccc(-c2cc(OC(=O)c3ccc(F)cc3)c3c(C)oc(C)c3c(=O)c2)cc1OC
 : -4% | -20%
COc1cccc(NC(=O)COC(=O)c2n[nH]c3ccccc23)c1
 : 3% | 185%[activator]
CN(C)C(=O)c1ccc2c(c1)NC(=O)CS2
 : -4% | 10%

The listing continues:
SMILES,StopGo RLuc,StopGo FLuc
CCn1c(C)c(C(C)=O)c2cc(OCC(O)CN3CCOCC3)ccc21 (stereo not drawn),1%,-4%
CCOC(=O)c1c(C)n(C2CCCCCC2)c2ccc(O)cc12,-11%,3%
CCOC(=O)N1CCc2c(sc(NCc3cccc(F)c3)c2C(=O)Nc2ccccc2OCC)C1,4%,-12%
CCCN1C(=O)CCc2cc(NS(=O)(=O)c3ccc4c(c3)CCCC4)ccc21,34%[activator],?
COc1ccc(-n2c(/C=C/c3cccc4ccccc34)nc3ccccc3c2=O)cc1OC,44%[activator],89%[activator]
O=C(NCC(c1ccc2c(c1)OCO2)N1CCN(c2ccc(F)cc2)CC1)c1cccc([N+](=O)[O-])c1 (stereo not drawn),37%[activator],?
COc1nc2c(c(=O)n(C)c(=O)n2C)n1Cc1ccc(Cl)cc1Cl,4%,21%
O=C(NC1(C(F)(F)F)N=C(c2ccccc2)N(Cc2ccco2)C1=O)c1ccc(F)cc1 (stereo not drawn),1%,-2%
Cc1cc(NC(=O)CSc2ncc(C(=O)Nc3ccccc3)c(=O)n2C)no1,-13%,-16%
CCOC(=O)NC(C(=O)NCc1cccc(OC)c1)C(C)C (stereo not drawn),3%,-4%
O=C(Nc1ccccc1C(F)(F)F)c1noc2c1CCCC2,7%,173%[activator]
COc1ccc(C2CC(=O)N(c3sc4c(c3C#N)CCCC4)C3=C2C(=O)CCC3)cc1 (stereo not drawn),-2%,21%
